NPYLR7 agonist: activates Aedes aegypti NPYLR7 receptor; HEK293T NPYLR7/Galpha15, GCaMP6s calcium fluorescence; activation, % at 10 µM; hit rate 0.15% among 270,000; AID 1259423; in the data active = activation above about 40%;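 note: 0% = vehicle and 100% = reference agonist at the receptor; some compounds past the cut are filed as inactive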
NPYLR7 agonist max-min: recorded beside NPYLR7 agonist, whose call it bears; activation, %; measured here: Max-Min RFU normalised activation; some inactives read as strong as hits;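 span of the calcium signal over five minutes; 0% = vehicle and 100% = native peptide agonist; compound fluorescence can raise it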
Starred values were filed as active, the others as inactive; & = joins results of further samples. Not all compounds are listed; count on the stated rates, not on these rows.

Preview:
`CC(C)(C)c1ccc(S(=O)(=O)NC(=O)C2(C)CCN2C(=O)CC2CC2)cc1` (stereo unspecified) gave NPYLR7 agonist -1 and NPYLR7 agonist max-min -4.
Screening O=C(NCCSCc1ccccc1)c1ccc(-c2cc(-c3cccc(C(F)(F)F)c3)n[nH]2)cc1 returned NPYLR7 agonist -3 and NPYLR7 agonist max-min 2.
Cc1cc(C)c(S(=O)(=O)NCc2ccc3c(c2)OCO3)c(C)c1Br was read as NPYLR7 agonist -6 and NPYLR7 agonist max-min -5.
For COc1ccc(C[C@H](NC(=O)C2=C[C@@H](NC(=O)c3cc(OC)ccc3Br)[C@@H](O)[C@H](OC(=O)Nc3ccccc3)C2)C(N)=O)cc1 the results were NPYLR7 agonist -4 and NPYLR7 agonist max-min -7.
CCOc1ccc(Cc2nn[nH]n2)cc1 was read as NPYLR7 agonist 5 and NPYLR7 agonist max-min -2.
Screening Cc1ccc(S(=O)(=O)C(C#N)=Cc2ccc(Br)cc2)cc1 returned NPYLR7 agonist 2 and NPYLR7 agonist max-min 5.
For O=C1NC2=C(C(=O)N(CCc3ccccc3)C2)C(c2ccccc2Cl)N1 (stereo unspecified) the results were NPYLR7 agonist -6 and NPYLR7 agonist max-min -4.
`O=C(CCC1CCN(Cc2cccc3c2OCO3)CC1)NCc1cccc(C(F)(F)F)c1` gave NPYLR7 agonist 3 and NPYLR7 agonist max-min 3.
Screening Cc1ccc(-c2nc(CN3CCOC(c4ccccc4)C3)cs2)o1 (stereo unspecified) returned NPYLR7 agonist 7 and NPYLR7 agonist max-min 4.
`Cc1csc2c(N3CCC(n4nccc4NC(=O)C4CC4)CC3)ncnc12` gave NPYLR7 agonist 18 and NPYLR7 agonist max-min 14.
`COc1ccc(-c2nn(-c3ccccc3C)cc2CN(C)Cc2n[nH]c(=O)[nH]2)cc1F` gave NPYLR7 agonist 15 and NPYLR7 agonist max-min 2.

The list itself (from the top)
`CC(C)(C)c1ccc(S(=O)(=O)NC(=O)C2(C)CCN2C(=O)CC2CC2)cc1` (stereo unspecified) gave NPYLR7 agonist -1 and NPYLR7 agonist max-min -4.
Screening O=C(NCCSCc1ccccc1)c1ccc(-c2cc(-c3cccc(C(F)(F)F)c3)n[nH]2)cc1 returned NPYLR7 agonist -3 and NPYLR7 agonist max-min 2.
Cc1cc(C)c(S(=O)(=O)NCc2ccc3c(c2)OCO3)c(C)c1Br was read as NPYLR7 agonist -6 and NPYLR7 agonist max-min -5.
For COc1ccc(C[C@H](NC(=O)C2=C[C@@H](NC(=O)c3cc(OC)ccc3Br)[C@@H](O)[C@H](OC(=O)Nc3ccccc3)C2)C(N)=O)cc1 the results were NPYLR7 agonist -4 and NPYLR7 agonist max-min -7.
CCOc1ccc(Cc2nn[nH]n2)cc1 was read as NPYLR7 agonist 5 and NPYLR7 agonist max-min -2.
Screening Cc1ccc(S(=O)(=O)C(C#N)=Cc2ccc(Br)cc2)cc1 returned NPYLR7 agonist 2 and NPYLR7 agonist max-min 5.
For O=C1NC2=C(C(=O)N(CCc3ccccc3)C2)C(c2ccccc2Cl)N1 (stereo unspecified) the results were NPYLR7 agonist -6 and NPYLR7 agonist max-min -4.
`O=C(CCC1CCN(Cc2cccc3c2OCO3)CC1)NCc1cccc(C(F)(F)F)c1` gave NPYLR7 agonist 3 and NPYLR7 agonist max-min 3.
Screening Cc1ccc(-c2nc(CN3CCOC(c4ccccc4)C3)cs2)o1 (stereo unspecified) returned NPYLR7 agonist 7 and NPYLR7 agonist max-min 4.
`Cc1csc2c(N3CCC(n4nccc4NC(=O)C4CC4)CC3)ncnc12` gave NPYLR7 agonist 18 and NPYLR7 agonist max-min 14.
`COc1ccc(-c2nn(-c3ccccc3C)cc2CN(C)Cc2n[nH]c(=O)[nH]2)cc1F` gave NPYLR7 agonist 15 and NPYLR7 agonist max-min 2.
`O=C(CCCc1ccccc1)Nc1ccnn1C1CCN(C2CCSC2)CC1` (stereo unspecified) gave NPYLR7 agonist -4 and NPYLR7 agonist max-min -3.
For COCCNC(=O)c1csc(COc2ccc(C)cc2C)n1 the results were NPYLR7 agonist 9 and NPYLR7 agonist max-min -1.
For Cc1cccc(C2=N/C(=C/c3coc4ccc(Cl)cc4c3=O)C(=O)O2)c1 the results were NPYLR7 agonist -5 and NPYLR7 agonist max-min -9.
`Cn1cnnc1CNC(=O)c1ccccc1Oc1ccc(Cl)cc1Cl` gave NPYLR7 agonist -1 and NPYLR7 agonist max-min 13.
Cc1cc(C)cc(C(=O)N2CCN(C3CCOC3=O)CC2)c1 (stereo unspecified) was read as NPYLR7 agonist 5 and NPYLR7 agonist max-min 0.
`O=C(NCCc1c[nH]c2cc(F)ccc12)C1CCCN(c2ncccn2)C1` (stereo unspecified) gave NPYLR7 agonist 7 and NPYLR7 agonist max-min 7.
Screening Cc1ocnc1C(=O)NCc1ccc2[nH]c(-c3ccc(F)cc3)c(C)c2c1 returned NPYLR7 agonist 4 and NPYLR7 agonist max-min 2.
`COc1cccc(C(=O)Nc2cccc(-c3nc4cc(Cl)ccc4o3)c2)c1` gave NPYLR7 agonist -9 and NPYLR7 agonist max-min -13.
`OCCOCc1nc2ccc(NC(=S)NCc3ccccc3)cc2[nH]1` gave NPYLR7 agonist 19 and NPYLR7 agonist max-min 15.
For CC(=O)N1CCN(c2cc(C(F)(F)F)nc(SCc3ccc(C(=O)NCc4ccccn4)o3)n2)CC1 the results were NPYLR7 agonist 8 and NPYLR7 agonist max-min 4.
Screening O=C(COc1ccc2oc3c(c2c1)CCCC3)NCc1cccnc1 returned NPYLR7 agonist -7 and NPYLR7 agonist max-min 20.
CC1CCCN(c2cc(C(=O)NCc3ccccc3F)c3ccccc3n2)C1 (stereo unspecified) was read as NPYLR7 agonist 5 and NPYLR7 agonist max-min 0.
`CCN1N=C(C)C(C)n2c1nc1c2c(=O)n(CCC(C)C)c(=O)n1C` (stereo unspecified) gave NPYLR7 agonist 1 and NPYLR7 agonist max-min 3.
O=C(NCc1ccc2c(c1)OCO2)c1ccc(CSc2nc(N3CCCC3)cc(C(F)(F)F)n2)cc1 was read as NPYLR7 agonist 15 and NPYLR7 agonist max-min 10.
`CSc1ncc(Cl)c(C(=O)N2CCN(c3cccc(C)c3C)CC2)n1` gave NPYLR7 agonist -3 and NPYLR7 agonist max-min -6.
For Cc1ccc(S(=O)(=O)NC(C)c2ccccc2Br)cc1 (stereo unspecified) the results were NPYLR7 agonist 3 and NPYLR7 agonist max-min 1.
`COc1ccc2c(c1)CCC1Sc3ccccc3N=C21` (stereo unspecified) gave NPYLR7 agonist -4 and NPYLR7 agonist max-min -3.
Screening CC(=O)Oc1ccc(Cn2cc(C(=O)NCc3cccs3)sc2=O)cc1 returned NPYLR7 agonist 11 and NPYLR7 agonist max-min 5.
CC1(C(=O)Nc2ccc(Cl)c(Cl)c2)CCN1Cc1ccccc1Cl (stereo unspecified) was read as NPYLR7 agonist 7 and NPYLR7 agonist max-min 1.
Screening COCCNC(=O)C1CCCN(C2CCN(C(=O)C3(N)CCC3)CC2)C1 (stereo unspecified) returned NPYLR7 agonist -3 and NPYLR7 agonist max-min -7.
For COc1cc(/C=C/C(=O)Nc2cnc3ccccc3c2)cc(OC)c1 the results were NPYLR7 agonist 0 and NPYLR7 agonist max-min 0.
CSC1CCCCN(Cc2nnnn2-c2ccc(C(F)(F)F)cc2)C1 (stereo unspecified) was read as NPYLR7 agonist -1 and NPYLR7 agonist max-min -2.
Screening CCC(CO)Nc1cncc(-c2cc(C(C)C)ccc2OC)n1 (stereo unspecified) returned NPYLR7 agonist -8 and NPYLR7 agonist max-min -11.
Screening CCC(O)CN1CCc2nc(Cc3ccccc3F)[nH]c(=O)c2C1 (stereo unspecified) returned NPYLR7 agonist -17 and NPYLR7 agonist max-min -13.
CC1(C)CC(=O)C2C(=Nc3cc(C(=O)c4ccccc4)ccc3NC2c2ccc(Cl)cc2)C1 (stereo unspecified) was read as NPYLR7 agonist -8 and NPYLR7 agonist max-min -15.
Screening CC(C)(C)OC(=O)NCCCCCC(=O)N1CCC2(CC1)C(=O)NCN2c1ccccc1 returned NPYLR7 agonist 5 and NPYLR7 agonist max-min 5.
`COc1ccccc1C1C(C(=O)OC2CCCC2)=C(C)NC2=C1C(=O)CC(c1ccccc1)C2` (stereo unspecified) gave NPYLR7 agonist 13 and NPYLR7 agonist max-min 12.
Screening COc1ccc(CCNC(=O)NCC(c2ccsc2)N(C)C)cc1 (stereo unspecified) returned NPYLR7 agonist 0 and NPYLR7 agonist max-min -7.
Screening C=CCN1C[C@@H]2C[C@@H](C(=O)OCC)N(C(=O)COc3ccccc3)c3cccc(c32)C1=O returned NPYLR7 agonist -2 and NPYLR7 agonist max-min 11.
For CCCC(=O)N1CCC1(C)C(=O)Nc1cccc2cnccc12 (stereo unspecified) the results were NPYLR7 agonist -2 and NPYLR7 agonist max-min -2.
O=c1cc(O)c2sc3nc(-c4cccs4)cc(-c4cccs4)c3c2[nH]1 was read as NPYLR7 agonist -1&12 and NPYLR7 agonist max-min -4&5.
`OC(c1ccccc1)c1cn(C2CCN(Cc3nccs3)CC2)nn1` (stereo unspecified) gave NPYLR7 agonist -1 and NPYLR7 agonist max-min -5.
Screening O=C1c2cccc([N+](=O)[O-])c2C(=O)N1CNc1cccc(Cl)c1Cl returned NPYLR7 agonist 8 and NPYLR7 agonist max-min 12.
For COc1cc(OC)c(OC)cc1CNCCSc1nnnn1C the results were NPYLR7 agonist 2 and NPYLR7 agonist max-min -1.
Fc1ccccc1Cc1nc(CCc2ccccc2)n[nH]1 was read as NPYLR7 agonist 21 and NPYLR7 agonist max-min 11.
CC(=O)CC1C(C(C(C)=O)=C(C)O)N(C(C)=O)c2ccccc2N1C (stereo unspecified) was read as NPYLR7 agonist 7 and NPYLR7 agonist max-min 10.
Cc1sc2nc(CSC3=NCCS3)[nH]c(=O)c2c1C was read as NPYLR7 agonist 12 and NPYLR7 agonist max-min 5.
For O=C(c1ccc([N+](=O)[O-])s1)N(CCCN1CCOCC1)c1nc2ccccc2s1 the results were NPYLR7 agonist -3 and NPYLR7 agonist max-min -8.
Screening CC(=O)N(CN1C(=O)c2ccccc2C1=O)c1ccc(OCc2ccccc2)cc1 returned NPYLR7 agonist 8 and NPYLR7 agonist max-min 11.
Cc1cc(NCc2cn(C)nc2-c2cccnc2)n(C)n1 was read as NPYLR7 agonist 3 and NPYLR7 agonist max-min -1.
COc1ccc(CCOC(=O)[C@@H]2CCCN2C(=O)C2CCCCCC2)cc1OC was read as NPYLR7 agonist 1 and NPYLR7 agonist max-min -3.
`O=S(=O)(NCc1ccc(F)cc1)c1ccc(Br)s1` gave NPYLR7 agonist 7 and NPYLR7 agonist max-min 0.
`C=CCn1c(SC(C)C(=O)NCc2cccs2)nc2ccsc2c1=O` (stereo unspecified) gave NPYLR7 agonist 0 and NPYLR7 agonist max-min 10.
Cc1cc(C(=O)N(CCO)[C@H]2[C@H](O)[C@@H]3O[C@H]2c2ccccc23)c(C)o1 was read as NPYLR7 agonist 4 and NPYLR7 agonist max-min 3.
Screening CN(C(=O)C1CCN(Cc2ccccc2)CC1)C(c1ccc(F)cc1)c1ccccn1 (stereo unspecified) returned NPYLR7 agonist 3 and NPYLR7 agonist max-min -6.
CCOc1nnc(CN2CCN(C(=O)C(C)(C)c3ccccc3)CC2)s1 was read as NPYLR7 agonist 0 and NPYLR7 agonist max-min 0.
For COc1cc(-c2cccc(-n3cccn3)c2)ccc1NC(C)=O the results were NPYLR7 agonist -2 and NPYLR7 agonist max-min -4.
Screening COCCC1(C(=O)NC(C2CC2)C2CC2)CCC1 returned NPYLR7 agonist 9 and NPYLR7 agonist max-min 5.
Screening Cc1c(Cl)cccc1N(CC(=O)NC1CCCCC1)S(C)(=O)=O returned NPYLR7 agonist 2 and NPYLR7 agonist max-min 0.
Cc1cccc(CCN2CCC(C(=O)c3ccc(NS(C)(=O)=O)cc3)CC2)n1 was read as NPYLR7 agonist -2 and NPYLR7 agonist max-min -5.
For Cc1cc(NCCc2ccccc2)n2nc(C)c(-c3ccccc3)c2n1 the results were NPYLR7 agonist -1 and NPYLR7 agonist max-min -4.
Screening CCCNC(=O)Cn1nc2c(c1NC(=O)c1ccc(OC)cc1OC)CSC2 returned NPYLR7 agonist -5 and NPYLR7 agonist max-min -6.
`Cc1nn(C)cc1NC(=O)CN1CCOC(C(F)(F)F)C1` (stereo unspecified) gave NPYLR7 agonist 5 and NPYLR7 agonist max-min -5.
For COc1cc(OC)c(N2CC(C(=O)OC3CCCCC3)CC2=O)cc1Cl (stereo unspecified) the results were NPYLR7 agonist -1 and NPYLR7 agonist max-min -4.
Screening Fc1ccc(-c2nc3c(NCc4ccccc4)nccc3[nH]2)cc1F returned NPYLR7 agonist -1 and NPYLR7 agonist max-min -9.
COc1cccc(-n2c(SCC(N)=O)nc3c(c2=O)SCC3)c1 was read as NPYLR7 agonist -4 and NPYLR7 agonist max-min -8.
COc1ccc(OC)c2c1CN(C1CCCc3ccccc31)CC2O (stereo unspecified) was read as NPYLR7 agonist -1 and NPYLR7 agonist max-min -1.
Screening COc1ccc(Br)cc1S(=O)(=O)N1CCCC1 returned NPYLR7 agonist 0 and NPYLR7 agonist max-min 0.
Screening COc1ccc(OC)c(CN(Cc2ccco2)C(=O)c2cccc(C(F)(F)F)c2)c1 returned NPYLR7 agonist -3 and NPYLR7 agonist max-min -5.
`COc1cccc(Cn2c(=O)c(C(=O)NC3CC3)nn(-c3ccc(Cl)cc3)c2=O)c1` gave NPYLR7 agonist 9 and NPYLR7 agonist max-min 5.
`O=C(NCCNc1nc(-c2ccco2)nc2ccccc12)Nc1ccc(F)cc1F` gave NPYLR7 agonist -6 and NPYLR7 agonist max-min -1.
Screening C=CCN(Cc1csc(COc2ccc(OC)cc2)n1)C(=O)Cc1ccccc1 returned NPYLR7 agonist 28 and NPYLR7 agonist max-min 25.
COc1ccc(NC(=O)CSc2ccc(F)cc2F)cn1 was read as NPYLR7 agonist 2 and NPYLR7 agonist max-min -1.
